PrP 5UTR inh – suppresses PrP 5' UTR mRNA reporter expression; cell-based PrP 5' UTR mRNA reporter, plate reader; inhibition, % (test concentration not listed); 0.35% of 340,000 active; AID 488862;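 active = every replicate at 50% or more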;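 also: 0 = median of the neutral control wells; tested in H4 reporter cells; numbers are from one replicate; inactives centre near -14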
Autofluor counter – flagged as autofluorescent in microsphere protease counterscreen | compound autofluorescence counterscreen, microsphere flow cytometry; stronger effect = higher value | fluorescence intensity (no concentration beside the values) | 3.1% of 360,000 active | AID 624483;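 active = at least 3 SD above the mean of all compounds, about 16000 in these data; inconclusive = too few beads counted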;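 also: 100 nL of 1 mM stock went into each well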
RN4220 kill – kills Staphylococcus aureus RN4220; S. aureus RN4220 growth, OD600, 16 h; inhibition, % (concentration not given with the values); 0.33% of 330,000 active; AID 1259311;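 active = z-score of -3 or lower and OD600 up to 0.18 on both plates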;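 also: plate controls were untreated cells for no effect and reference antibiotic for full effect; stock transfer was 100 nL into about 80 µL; one replicate is shown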
BJeLR lethal – kills HRASV12-expressing BJeLR cells; AID 1554; inhibition, % (test concentration not listed); 0.17% of 300,000 active; BJeLR (HRASV12) viability, CellTiter-Glo ATP luminescence, 48 h; reference of the scale not given here;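 active = replicate mean above 50%; inconclusive = above 50% but judged a plate artefact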;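 also: 50 nL library stock added to about 25 µL; numbers are from one replicate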
Mtb hypoxia inh – Mtb hypoxia fluorescent reporter inhibition; fluorescence inhibition, % (test concentration not listed); M. tuberculosis hypoxia-regulated fluorescent reporter, fluorescence; 0.1% of 300,000 active;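 active = 35 to 45% if threefold the growth effect, above 45% if 1.5-fold the growth effect; inactive = the rest, general growth blockers included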;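 also: wells of about 50 µL received 100 nL stock; 0% = vehicle wells and 100% = reference inhibitor wells; whole bacteria with a GFP reporter of the hypoxia response; strong numbers were not always called active; many hits fall short of the cut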
Sa ugtP lethal – growth inhibition of S. aureus ugtP deletion strain; growth inhibition, % (concentration not given with the values); 0.54% of 330,000 active; S. aureus RN4220 ugtP deletion, OD600 growth, 16 h; some inactives read as strong as hits; AID 1259309;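 active = z-score under -3 and OD600 up to 0.15 on both plates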;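 also: plate controls were untreated wells for no effect and antibiotic for full effect; wells of about 80 µL received 100 nL stock; the first replicate is given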
Mtb hypoxia inh growth – also measured in Mtb hypoxia inh; calls as there; growth inhibition, %; measured here: M. tuberculosis growth (absorbance);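 0% = vehicle and 100% = reference antibiotic; read after six days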
Active calls of the source: *; ? = inconclusive; . = no result given; & = joins results of further samples. This is a random part of the collection, and some 4% of all compounds hit somewhere here.

SMILES | PrP 5UTR inh | Autofluor counter | RN4220 kill | BJeLR lethal | Mtb hypoxia inh | Mtb hypoxia inh growth | Sa ugtP lethal
O=C(Nc1cc(S(=O)(=O)N2CCCCC2)ccc1Cl)c1ccc(F)cc1 | -11 | 2877 | 3.9 | . | -2 | -6 | -2
CCOc1ncccc1C(=O)Nc1nnc(C(CC)CC)s1 | -12 | 4448 | -1.0 | -1 | 6 | 14 | 23
CN1CCN(C(=O)/C(=C/c2cn(S(=O)(=O)N(C)C)c3ccccc23)NC(=O)c2ccccc2)CC1 | -5 | 5175 | 0.9 | -4 | 10 | 3 | 3
CC(=O)N(c1ccccc1C)S(=O)(=O)c1ccc(Cl)cc1 | 9 | 4582 | 2.7 | -3 | 2 | 3 | 3
CCc1ccc(C=NNC(=O)c2nnn(-c3nonc3N)c2CN2CCc3ccccc32)cc1 | . | . | 4.6 | . | 16 | 9 | -1
O=C(O)C1CC(c2ccccc2)=NO1 (stereo not drawn) | -26 | 7540 | 3.2 | 11 | 1 | 3 | -3
Cc1ccc(NC(=O)c2ccc(CNc3c(N4CCC(C)CC4)c(=O)c3=O)cc2)cc1 | -9 | 3368 | 5.8 | 1 | 8 | -5 | -1
CCC(C)[C@H](NC(=O)NCC1CCCO1)C(=O)OC (stereo partly drawn) | -10 | 24826* | 5.0 | 18 | 4 | 5 | 9
CN(C)Cc1ccccc1Sc1ccc2c(c1)CCCC2 | . | . | -4.5 | -4 | 13 | 2 | 13
Cc1cc(C)n(-c2nc(Nc3ccccc3C(F)(F)F)nc(-n3nc(C)cc3C)n2)n1 | 23 | 2937 | -0.8 | -5 | . | . | -59
Cc1c(OCC(=O)N[C@H](C(=O)O)c2ccccc2)ccc2c3c(c(=O)oc12)CCCC3 | -33 | 5041 | 4.4 | -2 | . | . | 10
CCOC(=O)C1=C(N)Oc2c(c(=O)[nH]c3ccccc23)C1c1ccccc1 (stereo not drawn) | -25 | 4938 | 4.4 | -2 | -1 | 5 | -5
COc1ccc(S(=O)(=O)N2CCN(Cc3ccccc3)CC2)cc1OC | -5 | 4411 | 2.5 | -4 | 8 | -1 | 3
Cn1c(SCC#N)nnc1-c1cccnc1 | -18 | 2127 | 3.8 | 8 | 14 | 3 | -3
CCN(CC)CCCN1C(=O)C(=O)/C(=C(/O)c2ccc3c(c2)OCCO3)C1c1ccco1 (stereo not drawn) | -23 | 9225 | 4.6 | . | -1 | 10 | 0
CC1CC(C(F)(F)F)n2nc(C(=O)O)cc2N1 (stereo not drawn) | -16 | 8600 | 2.7 | -1 | 16 | 4 | 2
CN(C)CCN(C(=O)CCS(=O)(=O)c1ccccc1)c1nc2cc3c(cc2s1)OCO3 | -27 | . | 5.4 | -5 | 0 | -6 | 11
COc1cccc(/C=C2\SC(=O)N(CC(=O)NC3CCS(=O)(=O)C3)C2=O)c1 (stereo not drawn) | 0 | 6051 | 4.8 | 5 | -13 | -13 | 5
CN1CC(=O)N(CC(=O)NC2CCCCC2)C1=O | -14 | 3871 | 2.4 | . | -11 | -7 | -1
CC(C)CN(C(=O)CCC(=O)OCC(=O)N(C)c1ccccc1)c1c(N)n(CC(C)C)c(=O)[nH]c1=O | -4 | 5077 | 2.6 | -6 | -5 | -7 | 11
Cc1ccc(C(=O)N/C(=C/c2ccco2)C(=O)Nc2cccc(C)c2)cc1 | -13 | 6735 | 7.7 | 10 | 10 | 2 | 14
COc1ccc(N2CCSC2C(=O)NN)cc1 (stereo not drawn) | -6 | 3349 | 2.3 | -6 | 13 | 10 | 4
Cc1ccc2c(c1)c(C)c(C)n2CC(O)CN1CCOCC1 (stereo not drawn) | -19 | 4454 | -0.6 | 1 | -8 | 7 | -2
Cc1ccc2c(c1)[C@@H]1CN(C)CC[C@@H]1N2C(=O)Nc1cccc(C(F)(F)F)c1 | 10 | 23738* | -2.9 | -5 | 2 | 6 | 1
CCCc1ccc(OCc2ccc(C(=O)N3CCN(c4ccccn4)CC3)o2)c(OC)c1 | -15 | 23006* | 13 | 1 | 4 | 6 | -15
Cc1cc(SCC(=O)O)nc2ccccc12 | -25&-13 | 3405&4100 | 3.8&8.2 | 6&7 | 11&7 | 7&-4 | 2&4
CN(C(=O)CN1C(=O)NC2(CCCc3ccccc32)C1=O)C1CCCCC1 (stereo not drawn) | -14 | 3608 | 2.1 | . | -5 | 12 | -2
Cc1ccc(N2C(=O)CC(Sc3ncn[nH]3)C2=O)cc1 (stereo not drawn) | -37 | 2597 | 13 | -3 | . | . | 16
O=S(=O)(NC1CCCCC1)c1ccc(Cl)nc1 | -17 | 6467 | 6.4 | 5 | 8 | 7 | 5
Cc1cccc(C=NN2CCN(c3ccccc3)CC2)c1 | . | . | 7.9 | . | 10 | 3 | 2

Brought forward from above: seven compounds; new compounds follow.
SMILES | PrP 5UTR inh | Autofluor counter | RN4220 kill | BJeLR lethal | Mtb hypoxia inh | Mtb hypoxia inh growth | Sa ugtP lethal
Cc1ccc2c(c1)[C@@H]1CN(C)CC[C@@H]1N2C(=O)Nc1cccc(C(F)(F)F)c1 | 10 | 23738* | -2.9 | -5 | 2 | 6 | 1
CCCc1ccc(OCc2ccc(C(=O)N3CCN(c4ccccn4)CC3)o2)c(OC)c1 | -15 | 23006* | 13 | 1 | 4 | 6 | -15
Cc1cc(SCC(=O)O)nc2ccccc12 | -25&-13 | 3405&4100 | 3.8&8.2 | 6&7 | 11&7 | 7&-4 | 2&4
CN(C(=O)CN1C(=O)NC2(CCCc3ccccc32)C1=O)C1CCCCC1 (stereo not drawn) | -14 | 3608 | 2.1 | . | -5 | 12 | -2
Cc1ccc(N2C(=O)CC(Sc3ncn[nH]3)C2=O)cc1 (stereo not drawn) | -37 | 2597 | 13 | -3 | . | . | 16
O=S(=O)(NC1CCCCC1)c1ccc(Cl)nc1 | -17 | 6467 | 6.4 | 5 | 8 | 7 | 5
Cc1cccc(C=NN2CCN(c3ccccc3)CC2)c1 | . | . | 7.9 | . | 10 | 3 | 2
Cn1c(=O)[nH]c(=O)c2c1nc(N1CCCCC1)n2CC=NNC(=O)c1cc(Br)ccc1O | . | . | 6.3 | . | -4 | 6 | 10
O=C(Nc1cccc(C(=O)O)c1)/C(=C/c1cccc([N+](=O)[O-])c1)NC(=O)c1cccc(Br)c1 | 8 | 4128 | -1.2 | -4 | -18 | 3 | -3
CC(C)S(=O)(=O)c1csc(C(=O)Nc2ccc(F)cc2)c1N | -96 | 3434 | 3.0 | 15 | 14 | 10 | 0
Cc1ccc(NC(=O)CSc2n[nH]c(-c3ccncc3)n2)cc1C | -3 | 5972 | 2.1 | 2 | 1 | 20 | -7
O=C(CC12CC3CC(CC(C3)C1)C2)NC(=S)NCc1ccccc1 | 3 | 2468 | -0.1 | 1 | 14 | 9 | -12
CSc1ccccc1-c1nnc(-c2ccccc2)o1 | -72 | 5015 | 1.2 | 6 | . | . | -22
O=C(NNC(=O)c1ccccc1-n1cccc1)c1cncc(Br)c1 | . | . | 9.5 | . | 13 | 14 | 4
CC1CCN(C(=O)CSc2nnc(CSc3ncccn3)n2C)CC1 | -22 | 10651 | 0.7 | 3 | 3 | 0 | 2
CCC(COC(=O)Nc1ccccc1)NC(=O)OC(C)C (stereo not drawn) | -14 | 3737 | 4.6 | 4 | 1 | 5 | 5
CCC1(c2ccc(F)cc2)NC(=O)N(CC(=O)N2c3ccccc3NC(=O)C2(C)C)C1=O (stereo not drawn) | -18 | 6007 | 3.9 | 6 | 1 | 1 | -5
C=CCN1C(=O)/C(=C2/Sc3ccc(OC)cc3N2C)SC1=NCc1ccccc1 | -20 | 5155 | 1.3 | -3 | -3 | 14 | -3
O=C(Nc1ccc(N2CCOCC2)c(Cl)c1)c1ccc2c(c1)OCCO2 | -16 | 3893 | 3.7 | -1 | 2 | 4 | 8
O=C(c1ccc(-n2cncn2)c([N+](=O)[O-])c1)N1CCN(S(=O)(=O)c2ccccc2Br)CC1 | -11 | 6206 | 3.0 | 6 | 12 | -1 | 2
Cc1cc(C)cc(NC(=O)C(=O)NCCc2c[nH]c3ccccc23)c1 | -9 | 6438 | -2.2 | 6 | -5 | 0 | -1
CC1(C)CC2(CC(c3ccccc3)c3ccc(O)cc3O2)NC(=S)N1 (stereo not drawn) | -5 | 3919 | 9.9 | . | -8 | -9 | 8
COc1ccc(-c2cc(C3C4C=CCC[C@@]4(C)C(=O)N3Cc3ccccc3)ccc2F)cc1 (stereo partly drawn) | . | . | -6.8 | . | 10 | 7 | -38
Cc1ccc(C)c(NC(=O)CN(C)C(=O)c2sccc2C)c1 | -22 | ? | 2.1 | 10 | 9 | -3 | 15
O=C(Cn1c2ccccc2c(=O)c2ccccc21)N/N=C/c1ccc(N2CCCC2)c([N+](=O)[O-])c1 | 4 | 2455 | . | -1 | . | . | .
Cc1ccc(/C=N/Nc2ccc(Cl)nn2)cc1 | -60 | 4738 | . | -5 | . | . | .
Cc1ccc(C(=O)c2ccc(CC(=O)O)n2C)cc1 | -23 | 5309 | 3.6 | . | 1 | 4 | -5
COc1cccc2c(=O)c(C(=O)O)c[nH]c12 | -29 | 10156 | 4.3 | -1 | -3 | 6 | -5
O=C(O)CCCN1C(=O)/C(=C\c2ccco2)SC1=S | -6 | 4431 | 4.5 | -3 | 10 | 5 | -2
COc1ccc(Br)cc1-c1nc(CCl)cs1 | -26 | 1925 | 9.5 | 2 | -3 | -6 | -2
CC(=O)c1ccc(NC(=S)Nc2cccc3cnccc23)cc1 | -11 | 2949 | 5.7 | 2 | 4 | 3 | 11
Cc1c(NC(=O)c2cccs2)cccc1C(=O)O | -31 | 3610 | 5.0 | -8 | 3 | 4 | -4
CC1(CCc2ccccc2)NC(=O)N(CC(=O)O)C1=O (stereo not drawn) | -22 | 5156 | 3.0 | 8 | 7 | 12 | -1
CC(=NN)c1c(-c2ccccc2)c2cc(C)ccc2[nH]c1=O | . | . | 0.7 | . | -3 | -1 | 5
CCN(CC)C(=O)Oc1ccc(NC(C)=O)cc1 | -25 | 11139 | 5.2 | 5 | 5 | -20 | 0
CC(=O)c1cc(C(C)=O)c(C)nc1C | -20 | 4169 | 2.9 | -5 | 16 | 3 | 5
COc1ccc(N(C(=O)c2cccnc2)S(=O)(=O)c2ccccc2)cc1 | -25 | 2686 | 3.5 | -4 | 0 | 1 | 1
Cc1ccc(-n2ncc3c(N4CCN(c5ccc(F)cc5)CC4)ncnc32)c(C)c1 | -12 | 6749 | -4.7 | 4 | 0 | -2 | -17
O=C(Cn1cnc2c(nnn2Cc2ccc(F)cc2)c1=O)NCc1ccco1 | -19 | 10286 | 0.2 | -7 | 7 | 1 | 9
N#CC1=C(SCC(=O)NC2CCCCC2)NC(=O)CC1c1ccco1 (stereo not drawn) | -13 | 2391 | 0.8 | -3 | . | . | -1
COc1cccc(C(=O)C2CCCN(C(=O)c3ccc(C#CC(C)(C)O)cc3)C2)c1 (stereo not drawn) | -7 | 2472 | 5.2 | 2 | 7 | 3 | 0
COC1c2ccccc2C(=O)N1CCc1ccc(Cl)cc1 (stereo not drawn) | -33 | 4171 | 4.4 | -3 | 4 | 17 | 8
CC(=O)c1ccc(S(=O)(=O)NCCC(=O)N2CCN(c3ccccn3)CC2)cc1 | -7 | 5201 | 5.4 | . | 6 | 9 | 4
O=C(COc1ccc(Cl)cc1Cl)NCC1(N2CCOCC2)CCCCC1 | -10 | 3439 | 4.9 | . | -5 | 5 | -6

From PubChem
